# HNF4A DNA FP: change in binding of human HNF4 alpha to DNA; HNF4a-FITC DNA binding, fluorescence polarization, 1 h; activity change, % at 10 µM; P41235; 360,000 compounds, 0.3% hits; in the data active = activity change above about 30%, passing the limit was not always enough;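 also: controls were the assay level and a saturating level of protein; the project sought stronger binding though the title names inhibitors; some compounds called inactive have numbers as strong as hits; positive values seem to mean higher polarization but the record does not say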
# ALR inh: human ALR oxidase inhibition via reduced H2O2; P55789; purified ALR, DTT oxidation, H2O2 HRP-luminol luminescence; inhibition, % (test concentration not listed); 290,000 compounds, 3.8% hits; AID 485317;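 active = mean and each replicate at 75% or more; inconclusive = only one of the two met; inactive = neither met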;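 also: stock transfer was 7.5 nL into about 7.5 µL; 0% = neutral wells and 100% = wells with inactivated enzyme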
# Target sequence (P55789 whole entry, looked up): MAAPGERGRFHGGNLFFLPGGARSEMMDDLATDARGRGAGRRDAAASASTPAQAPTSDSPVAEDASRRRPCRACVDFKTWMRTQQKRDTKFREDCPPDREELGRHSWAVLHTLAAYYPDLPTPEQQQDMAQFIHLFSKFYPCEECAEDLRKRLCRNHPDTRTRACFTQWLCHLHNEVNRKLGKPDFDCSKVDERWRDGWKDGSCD
# Vif TR-FRET: HIV-1 Vif–A3G interaction blockers – biochemical, TR-FRET, GST-Vif 1-94, biotin-A3G peptide, dose response retest, primary screen (AID 1117319); inhibition, %; hits with a dose series show IC50 in µM; TR-FRET GST-Vif / biotin-A3G peptide binding; higher % means a stronger effect; test concentration not given here; strong numbers were not always called active; 260,000 compounds, 0.57% hits;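 active = above the screen mean plus three standard deviations and confirmed in dose response; inconclusive = results disagree or hit not tested in dose response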;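 also: Vif residues 1-94 fused to GST binding biotinylated APOBEC3G peptide 110-148; 0% = full assay without inhibitor and 100% = GST in place of GST-Vif; retest series ran down from 100 µM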
# E coli growth: inhibitors of Escherichia coli growth | OD600, 23 h; active compounds read low | OD600 absorbance (test concentration not listed) | 330,000 compounds, 0.21% hits;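 active = OD600 absorbance below the run mean of sample wells minus 3.6 SD, in any replicate, cut at about 0.56 in these data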;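 also: stock transfer was 300 nL into about 60 µL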
# Ecoli rRNA inh: selective bacterial rRNA inhibition in E. coli; E. coli WT GFP vs humanized-ribosome RFP mutants, fluorescence, 24 h; active compounds read low; DMSO median 0, no signal -100; GFP signal change (wild-type ribosome), % (test concentration not listed); 350,000 compounds, 1.6% hits; AID 720706;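 active = significant combined selectivity score with lowered wild-type GFP, culture density cut under 30%, mutant RFP and density less affected; inactive = any of these conditions unmet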; also: one replicate is shown; some compounds called inactive have numbers as strong as hits
# FGF22 binding: binders of recombinant human FGF22 by thermal shift. SYPRO orange fluorescence; percent of sucrose octasulfate shift, DMSO zero. calls only at 9.99 µM. 340,000 compounds, 1.5% hits. AID 651658;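 active = melting point raised past a set limit in the mean and every replicate; inconclusive = no clear call; three in four hits are not shown here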
# Target sequence (Q9HCT0 whole entry, looked up): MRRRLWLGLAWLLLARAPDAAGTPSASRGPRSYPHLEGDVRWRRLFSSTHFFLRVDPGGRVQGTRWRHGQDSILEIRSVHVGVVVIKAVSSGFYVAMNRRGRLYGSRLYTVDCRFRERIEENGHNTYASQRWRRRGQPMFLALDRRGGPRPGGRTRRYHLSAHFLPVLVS
# MLL AF4-AF9 inh: inhibitors of human MLL-AF4/AF9 interaction; AlphaScreen, biotin-AF4 peptide binding to FLAG-AF9; 350,000 compounds, 0.47% hits; inhibition, % at 10 µM; AID 651704;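 active = every replicate reaching a set inhibition limit, whatever the replicate mean, cut at about 25% in these data; inconclusive = mean inhibition reaches that limit but some replicates miss it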;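 also: 0% = plate neutral control median and 100% = total signal loss; the record names both 10 and 1 µM as test concentration; the first replicate is given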
# Target sequence (P42568 whole entry, looked up): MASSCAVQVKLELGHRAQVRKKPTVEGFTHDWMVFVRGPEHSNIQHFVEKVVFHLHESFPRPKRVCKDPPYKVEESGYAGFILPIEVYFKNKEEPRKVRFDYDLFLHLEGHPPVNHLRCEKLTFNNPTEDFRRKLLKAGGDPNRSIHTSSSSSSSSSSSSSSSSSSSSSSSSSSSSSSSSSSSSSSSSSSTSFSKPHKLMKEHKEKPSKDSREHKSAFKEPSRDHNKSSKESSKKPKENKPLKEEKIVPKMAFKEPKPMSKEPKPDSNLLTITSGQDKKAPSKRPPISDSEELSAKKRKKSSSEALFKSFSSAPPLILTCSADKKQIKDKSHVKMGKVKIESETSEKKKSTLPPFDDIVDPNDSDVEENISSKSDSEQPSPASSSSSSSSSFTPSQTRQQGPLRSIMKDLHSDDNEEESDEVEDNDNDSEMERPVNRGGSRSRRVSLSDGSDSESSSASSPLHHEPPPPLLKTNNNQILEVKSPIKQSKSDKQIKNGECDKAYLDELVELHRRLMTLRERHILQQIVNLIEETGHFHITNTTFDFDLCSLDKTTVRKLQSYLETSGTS
# Ecoli rRNA inh OD600: second read-out of Ecoli rRNA inh, no call of its own (marks repeat the call); OD600 change, %; measured here: OD600 growth;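 optical density of the mix in the first replicate; 0 = DMSO median and -100 = no signal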
# Ecoli rRNA inh RFP: also measured in Ecoli rRNA inh; calls as there; RFP signal change, %; measured here: RFP humanized mutant strains;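 first replicate; 0 = DMSO median and -100 = no signal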
# Active calls of the source: *; i = inactive; u = inconclusive; x = no result given; + = active, no number. Not all compounds are listed; rates above refer to the full screens.
mol	Ecoli rRNA inh RFP	Ecoli rRNA inh	ALR inh	Ecoli rRNA inh OD600	FGF22 binding	HNF4A DNA FP	E coli growth	MLL AF4-AF9 inh	Vif TR-FRET
O=C(OC1CC2CC1[C@H]1CCCCN1C2=O)N1CCOCC1 (some centres undefined)	2.2	38	x	19	i	3.0	x	-0.8	x
CCCNC(=O)c1onc(CSc2ccncc2)c1C(=O)NCCC	-1.3	-1	1	-6	i	-1.3	0.63	x	7%
CCOC(=O)N1CCN(C2CC(=O)N(c3ccc(C)cc3)C2=O)CC1 (centres undefined)	x	x	-1	x	x	-1.2	0.74	x	-4%
CCOc1ccc(NC(=O)C2CC(=O)N(CCc3ccccc3)C2)cc1OC (centres undefined)	-2.3	5	-6	12	i	-3.1	0.68	-0.1	5%
CCn1c(SCC(=O)Nc2ccccc2)nc2nc3c(cc2c1=O)COC(C)(C)C3	-1.2	23	-8	20	i	x	0.66	x	11%
O=C(NCCc1c[nH]c2ccccc12)c1cccc(S(=O)(=O)Nc2ccccc2Cl)c1	-5.2	-36	x	-49	i	2.6	0.67	0.9	15%
CC(C)(C)C(=O)CC(=O)Nc1ccc(Cl)c(N)c1	x	x	20	x	x	-0.8	0.69	x	8%
COCCNC(=S)N1CCN(Cc2cccc(OC)c2)CC1	-0.7	17	5	13	i	-4.2	0.68	-2.4	2%
COc1ccc(C(=O)C[n+]2ccc(C)cc2)cc1	x	x	0	x	x	4.2	0.69	x	-4%
C[C@H]1CN([C@@H](C)CO)S(=O)(=O)c2ccc(C#CC(C)(C)O)cc2O[C@H]1CN(C)C(=O)C1CCC1	1.4	1	x	0	i	x	x	-2.1	x
COCCCn1c(SCC(=O)Nc2cccc(C)n2)nnc1-c1ccco1	x	x	-2	x	x	2.2	0.75	x	-3%
CC1CCN(C(=O)Cn2cnc3c2c(=O)n(C)c(=O)n3C)c2ccccc2S1 (centres undefined)	0.8	4	5	15	i	-2.7	x	-0.7	x
CC1(NC(=O)Cc2csc(-c3ccc(Cl)cc3)n2)CCS(=O)(=O)C1 (centres undefined)	6.1	7	-3	-4	i	0.6	0.66	1.0	x
CCCc1cn(CC[C@H]2CC[C@@H](NS(=O)(=O)c3ccccc3Cl)[C@@H](CO)O2)nn1	1.7	1	x	-7	i	x	x	-0.2	x
C[C@@H]1CN([C@H](C)CO)C(=O)c2cccc(NS(C)(=O)=O)c2O[C@H]1CN(C)Cc1ccccc1	-0.2	-1	x	-3	i	x	x	0.6	x
C=CCc1c(C)nc2c(C)cccc2c1SC(=N)N	-6.8*	-22*	100*	-13*	i	4.3	x	-9.9	x
CC(=O)N(C)C[C@@H]1Oc2cc(C#Cc3ccc(F)cc3)ccc2S(=O)(=O)N([C@H](C)CO)C[C@H]1C	-2.7	-13	x	-55	i	x	x	1.8	x
O=C(CCN1C(=O)c2ccccc2C1=O)Nc1ccccc1C(=O)N1CCOCC1	x	x	x	x	x	-1.5	0.72	x	-4%
CCn1cc(C(=O)NCCCN2CCCC(C)C2)c(=O)c2cc(S(=O)(=O)N3CCOCC3)ccc21 (centres undefined)	-1.0	-1	-2	3	i	-0.9	0.66	-8.1	x
O=C(NC1CCCCC1)C(c1ccc(O)cc1)N(CC1CCCO1)C(=O)C1COc2ccccc2O1 (centres undefined)	x	x	-1	x	x	2.2	0.67	x	6%
COc1ccc(NC(=S)Nc2ccc(N(C)C(C)=O)cc2)cc1	-1.7	15	x	18	i	-1.1	0.7	0.8	4%
O=C(NCC1CC1)[C@@H]1[C@@H](CO)[C@@H]2Cn3c(cccc3=O)[C@H]1N2C(=O)c1ccccc1	-2.5	0	x	3	i	x	x	-0.6	x
CC(C)C[C@@H](CN)NC(=O)c1nc[nH]c1C(=O)N[C@@H](Cc1ccccc1)C(=O)CNC[C@H](C)NC(=O)c1nc[nH]c1C(=O)N[C@@H](CC(=O)O)C(=O)O	-1.3	16	x	13	i	5.2	x	0.7	4%
CC(C)(C)OC(=O)NCCCC[C@H](NC(=O)c1nc[nH]c1C(=O)NC1CCN(C(=O)OC(C)(C)C)CC1)C(=O)OC(C)(C)C	10	10	x	2	i	1.4	x	x	x
O=C(CSc1ncccn1)NC(=O)NCc1ccccc1	x	x	-7	x	x	-2.7	0.66	x	5%
O=C(/C=C/c1cccc([N+](=O)[O-])c1)Nc1cccc(NC(=O)c2cccs2)c1	-11	-32	-3	-33	+	1.2	0.7	-0.4	12%
CCN(CC)C1CCN(Cc2c(C(=O)N3CCCCCCC3)nc3ccc(Cl)cn23)C1 (centres undefined)	1.5	7	-3	7	i	1.1	0.72	1.5	x
COc1cc(/C=C2\C(=N)N3N=CSC3=NC2=O)ccc1OS(=O)(=O)c1ccccc1	1.5	1	98*	6	i	0.1	0.7	-0.2	x
COC(=O)c1cc(C(=O)NCCC(C)C)cc([N+](=O)[O-])c1	x	x	-5	x	i	0.8	0.69	2.9	2%
O=S(=O)(c1ccccc1)N(CC(O)CN1CCOCC1)c1ccccc1 (centres undefined)	-1.5	5	x	4	i	-0.3	0.66	1.6	x

# Reformatted: entries from further up
O=C(NCCc1c[nH]c2ccccc12)c1cccc(S(=O)(=O)Nc2ccccc2Cl)c1
  Ecoli rRNA inh RFP: -5.2	Ecoli rRNA inh: -36	ALR inh: x	Ecoli rRNA inh OD600: -49	FGF22 binding: i	HNF4A DNA FP: 2.6	E coli growth: 0.67	MLL AF4-AF9 inh: 0.9	Vif TR-FRET: 15%

CC(C)(C)C(=O)CC(=O)Nc1ccc(Cl)c(N)c1
  Ecoli rRNA inh RFP: x	Ecoli rRNA inh: x	ALR inh: 20	Ecoli rRNA inh OD600: x	FGF22 binding: x	HNF4A DNA FP: -0.8	E coli growth: 0.69	MLL AF4-AF9 inh: x	Vif TR-FRET: 8%

# Continuation:
mol	Ecoli rRNA inh RFP	Ecoli rRNA inh	ALR inh	Ecoli rRNA inh OD600	FGF22 binding	HNF4A DNA FP	E coli growth	MLL AF4-AF9 inh	Vif TR-FRET
CC1(C(=O)NS(=O)(=O)c2ccc(F)cc2F)CCN1C(=O)c1ccc(C2CCCCC2)cc1 (centres undefined)	-3.1	-37	x	-47	x	2.9	x	-0.7	x
CCCNC(=O)N1C[C@@H](O)COC[C@H]2O[C@H](CC(=O)N[C@@H]3CCN(Cc4ccccc4)C3)CC[C@@H]21	-3.5	3	x	3	i	x	x	0.1	x
CC(C)CC#Cc1cnc2c(c1)C(=O)N([C@@H](C)CO)C[C@@H](C)[C@@H](CN(C)Cc1ccc(F)cc1)O2	4.2	-1	x	-8	i	x	x	4.8	x
CN1C(=O)c2cc(NC(=O)C3CCCC3)ccc2OC[C@H]2O[C@H](CC(=O)NCCc3ccncc3)CC[C@@H]21	-1.9	0	x	7	i	x	x	u	x
Cc1noc(C)c1C(=O)N1CC(C)OC(C)C1 (centres undefined)	x	x	1	x	x	-1.4	0.74	x	-3%
C[C@@H]1CN([C@H](C)CO)C(=O)c2cc(NC(=O)CCN3CCOCC3)ccc2O[C@H]1CN(C)C(=O)Nc1ccc(F)cc1	-1.9	5	x	4	i	x	x	-2.0	x
CC(C)NC(=S)N/N=C/c1cccs1	x	x	47	x	x	0.8	x	x	20%
O=C(Cc1cccs1)N1CCN=C1SCc1ccc(Br)cc1	5.5	-22	9	-20	x	-3.0	0.73	-2.8	x
CN1[C@@H]2c3ccc(-c4ccncc4)c(=O)n3C[C@@H]2[C@@H](CO)[C@@H]1C(=O)NCCc1ccccc1	1.8	0	x	-1	i	x	x	0.1	x
COC(=O)[C@]1(CC(C)C)N[C@H](c2ccc(-c3ccc4c(c3)OCO4)cc2)[C@@H]2C(=O)N(C)C(=O)[C@@H]21	0.2	10	-2	16	i	-3.2	x	-36	x
COc1ccc(CCNC(=O)c2c(-c3ccccc3Cl)noc2C)cc1	1.3	-16	-6	-6	i	-0.7	0.68	2.1	1%
Nc1ccc2c(c1)C(=O)N(c1cccc3ccccc13)C2=O	-0.8	-16	-11	-9	i	1.1	0.66	-8.0	4%
O=c1c2cccnc2[nH]c(=S)n1Cc1ccccc1	x	x	-19	x	x	-3.5	0.73	x	u
CCN(CC)C(=O)c1cnn(-c2ccccc2)c1NC(=O)c1cccc(F)c1	x	x	7	x	x	-0.4	0.78	x	2%
Cc1ccc(S(=O)(=O)Nc2ccc3ncccc3c2[N+](=O)[O-])cc1	-4.2	11	x	-29	i	-1.2	x	0.4	x
O=C(NCc1ccncc1)c1cccc(S(=O)(=O)N2CCc3ccccc32)c1	-6.2	5	-2	-26	i	0.4	0.65	3.0	x
Cc1ccc(C(=O)COC(=O)CNC(=O)c2cccs2)cc1	x	x	-3	x	x	0.1	0.7	x	3%
COc1ccc(C(CNC(=O)c2cccc(NS(=O)(=O)c3ccccc3)c2)N2CCCC2)cc1 (centres undefined)	0.6	8	x	3	i	0.4	0.7	4.1	x
COc1ccc(CN2CC[C@H]3C=CCc4cccc(c43)C2)cc1	1.3	-6	-31	-10	i	-1.9	x	7.8	x
O=C(O)Cn1nc(C(F)(F)F)c2c1CCCCC2	x	x	1	x	x	-0.1	0.72	x	1%
CCc1nc2c(OCc3ccccc3C)cccn2c1N(C)C(=O)C(C)C	3.7	6	x	6	i	-0.8	x	-2.8	x
O=C(NC1CC1)c1cccc2c1C(=O)c1ccc(N3CCC(N4CCCCC4)CC3)cc1S2(=O)=O	-5.7	4	x	18	x	45	x	4.3	0%
O=C(Cc1cccnc1)N[C@@H]1CC[C@H](CCNS(=O)(=O)c2ccccc2Cl)O[C@H]1CO	-0.2	4	x	-3	i	x	x	-0.1	x
CCOc1ccc(S(=O)(=O)NCC(=O)OCc2nnc(-c3ccccc3)o2)cc1	x	x	0	x	i	0.8	0.7	-4.0	x
O=C(CSc1nc(=O)n2ccccc2n1)NCCc1ccccc1	-1.2	0	-5	4	i	-4.3	0.65	-3.0	-3%
COc1ccc(NC(=O)Nc2c[nH]c(=O)[nH]c2=O)cc1OC	0.1	4	-13	8	i	1.7	0.69	-3.1	-2%
CCc1ccccc1NC(=O)CN1CCN(C(=O)c2cccc(-n3cnnn3)c2)CC1	x	x	-2	x	i	4.6	0.68	1.8	-13%
Cc1ccc(CNC(=O)CSc2nc3ccsc3c(=O)n2Cc2ccc(C(=O)O)cc2)cc1	-12	-11	21	-10	i	3.2	0.64	1.3	19%
Cc1cccc(-c2noc(CN(C(=O)c3ccc4c(c3)OCO4)C(C)C)n2)c1	x	x	7	x	x	-3.7	0.74	x	-3%
COc1ccc(Cc2nnc(Nc3ccc4c(c3)OCCO4)[nH]c2=O)cc1	-0.1	10	4	6	i	1.9	0.64	2.0	2%
O=[N+]([O-])c1cccc(N/N=C/c2cc([N+](=O)[O-])ccc2O)c1	0.4	-5	96*	7	i	-2.2	x	4.7	-1%
COc1ccc(-c2noc(C3CCCN(C(=O)Nc4ccccc4)C3)n2)cc1 (centres undefined)	0.6	-17	1	-15	i	5.5	0.71	-0.6	x
C[C@H]1CN([C@@H](C)CO)C(=O)c2cccc(NC(=O)c3nc4ccccc4s3)c2O[C@@H]1CN(C)Cc1ccccc1	0.6	-3	x	10	i	x	x	11	x

# Individual results from the results shown:
# E coli growth, `O=C(CSc1ncccn1)NC(=O)NCc1ccccc1` reads 0.66
# Ecoli rRNA inh, `CCCNC(=O)N1C[C@@H](O)COC[C@H]2O[C@H](CC(=O)N[C@@H]3CCN(Cc4ccccc4)C3)CC[C@@H]21` reads 3
# ALR inh, `O=C(Cc1cccs1)N1CCN=C1SCc1ccc(Br)cc1` reads 9
# ALR inh, `CCN(CC)C1CCN(Cc2c(C(=O)N3CCCCCCC3)nc3ccc(Cl)cn23)C1` (centres undefined) reads -3

# Source: PubChem BioAssay (several laboratories)
